Compound activity as filed in PubChem.
LANA-H2B inh: blocks KSHV LANA binding to histone H2A/H2B | cell-free LANA-H2A/H2B peptide, fluorescence polarization | inhibition, % (concentration not given with the values) | Q9QR71 | actives 0.6% (n = 320,000); in the data active means inhibition mostly above about 10%, no sharp cut-off; inactive means mostly below about 6.7%;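 further: stock transfer was 7.5 nL into about 10 µL; 0% = median of vehicle wells and 100% = median of positive control wells; one replicate is shown; the record names a cut of 25% in any replicate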
B2AR ag: agonists of human beta-2 adrenergic receptor inducing internalization. response, % (test concentration not listed). actives 0.43% (n = 340,000). Am2.2-beta2AR cells, FAP receptor internalization, flow cytometry; reference of the scale not given here;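 active means response above a set limit, near 3 SD of response in nonfluorescent compounds, cut at about 42% in these data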;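 further: stock transfer was 100 nL into about 11 µL; a reference agonist was the positive control; negative values mostly stem from fluorescent compounds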
Ecoli growth: inhibitors of Escherichia coli growth. OD600, 23 h; active compounds read low. OD600 absorbance (test concentration not listed). AID 1053175. actives 0.21% (n = 330,000);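 active means OD600 absorbance below the run mean of sample wells minus 3.6 SD, in any replicate, cut at about 0.56 in these data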;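 further: stock transfer was 300 nL into about 60 µL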
Vif TR-FRET: HIV-1 Vif–A3G interaction blockers – biochemical, TR-FRET, GST-Vif 1-94, biotin-A3G peptide, dose response retest, primary screen (AID 1117319). TR-FRET GST-Vif / biotin-A3G peptide binding; higher % means a stronger effect; test concentration not given here; strong numbers were not always called active. inhibition, %, or IC50 in µM where a hit was titrated. actives 0.57% (n = 260,000);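 active means above the screen mean plus three standard deviations and confirmed in dose response; inconclusive means results disagree or hit not tested in dose response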;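 further: Vif residues 1-94 fused to GST binding biotinylated APOBEC3G peptide 110-148; 0% = full assay without inhibitor and 100% = GST in place of GST-Vif; retest series ran down from 100 µM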
A1 inh: inhibitors of the anti-apoptotic protein A1, read as caspase activation. MEF A1-2A-BIM cells, Caspase-Glo 3/7 luminescence, 3 h; percent of clofoctol response, vehicle zero. caspase activation, % (test concentration not listed). actives 0.066% (n = 330,000). AID 2462;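 active means over half of replicate activation scores above 10%, or exactly half above 10 with the replicate mean above 10; inconclusive means replicate mean below 10 yet half the replicates above 10; inactive means over half of replicates below 10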;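 further: wells of about 30 µL received 50 nL stock; many hits fall short of the cut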
UCH37 inh: human UCH37 deubiquitinating enzyme inhibition; Q9Y5K5; purified proteasome/UCH37, Ub-AMC cleavage fluorescence; inhibition, % (test concentration not listed); actives 0.33% (n = 330,000); AID 588478;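 active means mean of two replicates above 20%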;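 further: 0% = compound-free wells with enzyme and 100% = wells lacking proteasome; stock transfer was 100 nL into about 20 µL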
Target sequence (Q9Y5K5 whole entry, looked up): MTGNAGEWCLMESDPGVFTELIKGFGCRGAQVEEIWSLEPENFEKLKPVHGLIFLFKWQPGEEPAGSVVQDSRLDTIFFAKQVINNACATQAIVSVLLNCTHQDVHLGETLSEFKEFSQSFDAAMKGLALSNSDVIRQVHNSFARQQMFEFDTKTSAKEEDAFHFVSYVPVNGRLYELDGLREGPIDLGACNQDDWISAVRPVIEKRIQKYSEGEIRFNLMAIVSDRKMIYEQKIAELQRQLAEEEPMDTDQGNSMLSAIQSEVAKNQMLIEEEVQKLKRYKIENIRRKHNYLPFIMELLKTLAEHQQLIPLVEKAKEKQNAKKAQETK
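Assay system: Proteasome-bound UCH37. Buffer or medium: pH 7.4 Tris-HCl (50 mM) with ovalbumin, ATP-MgCl2, DTT. Incubation: 30 min preincubation with enzyme, 25 min cleavage at room temperature. Measured by: fluorescence, ex 355 nm, em 460 nm. Read-out basis: percent inhibition. Control set: wells without proteasome as full block, compound-free enzyme plus substrate as uninhibited.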
HNF4A DNA FP: change in binding of human HNF4 alpha to DNA. HNF4a-FITC DNA binding, fluorescence polarization, 1 h. actives 0.3% (n = 360,000). P41235. activity change, % at 10 µM; in the data active means activity change above about 30%, passing the limit was not always enough;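 further: controls were the assay level and a saturating level of protein; the project sought stronger binding though the title names inhibitors; some compounds called inactive have numbers as strong as hits; positive values seem to mean higher polarization but the record does not say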
Target sequence (P41235 whole entry, looked up): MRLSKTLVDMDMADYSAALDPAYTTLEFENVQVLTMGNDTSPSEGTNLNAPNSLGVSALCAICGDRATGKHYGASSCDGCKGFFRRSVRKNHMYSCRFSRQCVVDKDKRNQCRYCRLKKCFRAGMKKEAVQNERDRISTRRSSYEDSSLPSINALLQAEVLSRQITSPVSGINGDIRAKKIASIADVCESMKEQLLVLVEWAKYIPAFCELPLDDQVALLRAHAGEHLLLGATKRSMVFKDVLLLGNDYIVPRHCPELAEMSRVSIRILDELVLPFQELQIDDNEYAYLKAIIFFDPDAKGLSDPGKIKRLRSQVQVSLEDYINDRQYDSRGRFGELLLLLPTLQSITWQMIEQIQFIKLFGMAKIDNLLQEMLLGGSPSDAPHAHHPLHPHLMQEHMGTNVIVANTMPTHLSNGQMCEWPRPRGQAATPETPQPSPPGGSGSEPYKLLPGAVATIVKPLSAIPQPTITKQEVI
* hit, by the source's call; ? = inconclusive; . = not tested or not shown. Hits appear at their usual frequency. Share with any hit: about 2.1%.

Value order – LANA-H2B inh	B2AR ag	Ecoli growth	Vif TR-FRET	A1 inh	UCH37 inh	HNF4A DNA FP
> Cc1ccc(-c2cc(C)nc3ncnn23)cc1
 : -1.4	-5	0.75	0%	0.3	-1.8	-1.4
> CCC(=O)c1ccc(N2CCCC2)c(F)c1
 : 1.0	-1	0.67	-13%	-1.0	7.6	2.8
> Cc1ccc(NC(=O)C2C3CC4OC(=O)C2C4C3)cc1Cl (stereo not given)
 : 1.7	2	0.77	-9%	-0.8	3.6	-8.9
> CCOc1ccccc1N(CC(=O)N1CCC(C)CC1)S(=O)(=O)c1ccc(C)cc1
 : -0.1	-2	0.67	1%	-0.8	2.3	-1.7
> Cc1ccc(CN2CCC(CO)(CC3CCCCO3)CC2)o1 (stereo not given)
 : -0.8	-9	0.64	12%	0.9	-2.2	6.2
> CCOc1ccccc1NC(=O)CSc1nnc(Cn2c(=O)sc3ccccc32)n1C
 : -3.1	-1	0.69	22%	0.0	2.0	-1.4
> COc1ccc(NC2=NCCC2)cc1
 : 2.4	-1	0.69	8%	-0.4	1.0	0.3
> O=C(c1ccccc1)N1CCN(S(=O)(=O)c2cccc(NS(=O)(=O)c3ccccc3)c2)CC1
 : 0.8	3	0.7	-1%	-0.5	5.7	-4.4
> c1ccc(-c2csc(Nc3nc(N4CCOCC4)nc(N4CCOCC4)n3)n2)cc1
 : 1.1	8	0.82	2%	0.8	8.5	-1.0
> O=C1C2C3C=CC(C3)C2C(=O)N1c1n[nH]c(CCc2ccccc2)n1 (stereo not given)
 : -0.1	-9	0.65	-1%	0.2	0.1	4.5
> O=C1C=CC(=O)N1c1ccc(Nc2ccccc2)cc1
 : .	-1	0.65	14%	.	7.2	-2.3
> CN(CCC#N)C(=O)CSc1nc2scc(-c3ccccc3)c2c(=O)[nH]1
 : 8.9	-3	0.7	2%	0.2	4.3	1.3
> CCC(C)NC(=O)c1cc(-c2ccccc2O)on1 (stereo not given)
 : 0.2	-2	0.74	-1%	-1.3	1.8	2.0
> O=C(CCC(=O)c1cccs1)OCc1nnc(-c2ccccc2)o1
 : -0.2	1	0.72	-1%	0.9	1.1	1.4
> CCOC(=O)c1c(NC(=O)c2cccs2)sc(C(=O)N(C)C)c1C
 : -0.7	1	0.72	1%	-0.5	-2.2	8.8
> COc1ccc(NC(=O)CNS(=O)(=O)c2ccccc2)cc1Cl
 : -0.1	0	0.66	-5%	0.2	1.4	5.7
> COc1ccccc1/C=N/OC(=O)c1ccc(F)cc1
 : -3.0	-7	.	-1%	-0.3	.	0.0
> CC(=O)NCC1CCCN(c2nc3nonc3nc2N(C)Cc2ccccc2)C1 (stereo not given)
 : 3.7	3	0.68	.	1.0	9.7	-1.7
> Cc1cccc(-c2noc(CN(C(=O)CCc3ccccc3)C(C)C)n2)c1
 : -5.0	9	0.68	-5%	0.9	1.5	3.7
> CCN(CC(=O)NC(C)(C)C)C(=O)COc1c(Cl)cc(Cl)c2ccc(C)nc12
 : -1.6	-1	.	21%	-0.1	.	1.8
> COc1ccc(S(=O)(=O)NCCc2nnc3ccc(SCC(=O)Nc4nc(C)cs4)nn23)cc1
 : -0.5	-9	0.71	5%	-1.4	1.5	-2.4
> CC1(C)Oc2ccc(C(=O)N3CCOCC3)cc2N(CC(=O)N2CCOCC2)C1=O
 : 1.6	0	0.69	-8%	-1.3	2.7	-0.6
> CC(=O)Oc1cccc(N2C(=O)c3cccc4c([N+](=O)[O-])ccc(c34)C2=O)c1
 : -7.1	4	0.68	21%	1.8	-2.1	-17
> CC(NC(=O)OC1CCCCC1)N1C(=O)C2C3C=CC(C3)C2C1=O (stereo not given)
 : -0.2	2	0.67	6%	0.2	3.3	-0.1
> CCN(CC)S(=O)(=O)c1ccc(N2CCCC2)c(NC(=O)C2CSC3(C)CCC(=O)N23)c1 (stereo not given)
 : -3.9	-11	0.68	14%	-1.4	-1.3	-0.4
> Cc1ccc(-c2cc(C(F)F)n3ncc(C(=O)Nc4cn(C)nc4C)c3n2)cc1
 : 3.1	-6	0.68	-6%	-0.4	2.1	3.1
> Cc1ccc(N2CCOCC2)c2c1C(=O)c1ccccc1C2=O
 : -0.1	-1	0.71	0%	0.2	4.7	-5.6
> CCN(CC(=O)Nc1c(F)cccc1F)C(=O)CCCOc1ccc(OC)cc1
 : -2.4	-3	0.7	.	2.6	-1.8	-1.5
> Cn1cc(S(=O)(=O)CC(=O)N2CCc3ccccc32)c2ccccc21
 : -6.5	-13	0.74	?	0.1	2.9	0.1
> COc1ccc(C2/C=C\CN(S(=O)(=O)/C=C/c3ccccc3)CC(=O)N2Cc2ccc(F)cc2)cc1 (stereo not given)
 : 0.1	10	.	.	1.7	0.2	1.8

An excerpt from above in order of their number in Vif TR-FRET, smallest number first.
Molecule	Vif TR-FRET
COc1ccc(S(=O)(=O)NCCc2nnc3ccc(SCC(=O)Nc4nc(C)cs4)nn23)cc1	5%
CC(NC(=O)OC1CCCCC1)N1C(=O)C2C3C=CC(C3)C2C1=O (stereo not given)	6%
CC(=O)Oc1cccc(N2C(=O)c3cccc4c([N+](=O)[O-])ccc(c34)C2=O)c1	21%

(list continues)
Value order – LANA-H2B inh	B2AR ag	Ecoli growth	Vif TR-FRET	A1 inh	UCH37 inh	HNF4A DNA FP
> Cc1sc2ncnc(NCC3(N4CCOCC4)CCCCC3)c2c1C
 : .	4	0.77	-17%	0.0	0.4	-0.4
> CN(Cc1ccccc1)C(=O)CCS(=O)(=O)c1ccc2c(c1)NC(=O)CS2
 : 0.6	-1	0.66	.	0.0	-0.9	-2.3
> COc1cc2c(cc1OC)C(C(=O)Nc1ccc(F)c(Cl)c1)CC(=O)N2 (stereo not given)
 : -1.1	-7	0.67	.	-0.1	0.9	3.1
> COc1ccc(NS(=O)(=O)c2cccc(-c3nnc(-c4ccccc4)o3)c2)cc1
 : -3.2	-3	0.72	28%	-0.2	1.5	0.1
> O=C(Nn1c(C2CC2)nc2ccccc2c1=O)c1ccco1
 : -4.5	-7	0.74	7%	0.5	3.4	-4.2
> CC(C)c1ccc(/C=N/NC(=O)c2cccc(Cl)c2)cc1
 : 4.0	16	.	-5%	-6.3	.	-6.3
> Cn1c(N)c(C(=O)CSc2nn(-c3ccccc3)c(=S)s2)c(=O)n(C)c1=O
 : .	6	0.65	-10%	.	0.6	-2.3
> O=C(Nc1ccc(-c2ccccc2)cc1)c1ccccc1
 : -6.0	0	0.68	.	-0.7	2.6	-1.5
> O=C(NCc1cccnc1)C1CCCN(S(=O)(=O)c2ccccc2)C1 (stereo not given)
 : -0.3	-5	0.64	2%	0.8	0.4	0.4
> O=C(NCc1ccc(F)cc1)c1ccncc1
 : -4.7	-4	0.69	.	0.8	2.3	2.0

Whole records, quoted from the list.
O=C(NCc1ccc(F)cc1)c1ccncc1 is listed with LANA-H2B inh: -4.7; B2AR ag: -4; Ecoli growth: 0.69; Vif TR-FRET: .; A1 inh: 0.8; UCH37 inh: 2.3; HNF4A DNA FP: 2.0
COc1cc2c(cc1OC)C(C(=O)Nc1ccc(F)c(Cl)c1)CC(=O)N2 (stereo not given) is listed with LANA-H2B inh: -1.1; B2AR ag: -7; Ecoli growth: 0.67; Vif TR-FRET: .; A1 inh: -0.1; UCH37 inh: 0.9; HNF4A DNA FP: 3.1

The listing continues.
Value order – LANA-H2B inh	B2AR ag	Ecoli growth	Vif TR-FRET	A1 inh	UCH37 inh	HNF4A DNA FP
> Cc1c(C)c2ccc(OCC(=O)Nc3ccc(CN4CCOCC4)cc3)cc2oc1=O
 : 3.8	-9	0.61	0%	-0.6	-41	7.1
> O=C(COC(=O)CCC(=O)c1ccc(F)cc1)Nc1ccccc1
 : 0.6	-13	0.66	.	0.5	1.6	-0.9
> COc1cc(C(=O)NC(=S)Nc2ccc(Cc3ccncc3)cc2)cc(OC)c1OC
 : -2.9	2	0.7	-9%	0.6	2.0	-2.0
> CC(C)Oc1ccc(Cc2n[nH]c(=S)n2Cc2ccccc2)cc1Cl
 : 4.1	-2	0.71	1%	0.9	3.5	-0.1
> CCOc1ccc(N(CC(=O)Nc2ccccc2)S(C)(=O)=O)cc1
 : -0.9	-1	0.71	6%	0.0	-2.4	-0.8
> C=CCc1cc(/C=C2/NC(=O)N(CC(=O)OC)C2=O)cc(OC)c1O
 : 0.7	3	0.68	.	0.6	2.2	-9.1
> CC(C)CN(CCCNC(=O)CN1C(=O)COc2ccc(S(=O)(=O)N3CCCCCC3)cc21)CC(C)C
 : 0.2	-1	0.71	.	0.3	0.1	-3.3
> Clc1nc2ccccc2nc1-c1ccccc1
 : -1.9	-14	0.7	8%	0.9	2.2	-1.8
> Cc1cccnc1NC(=O)c1ccc2c(c1)NC(=O)C(C)S2 (stereo not given)
 : 4.1	-1	0.69	4%	0.8	4.5	-0.2
> CC(C)c1ccc(NC(=O)c2cc([N+](=O)[O-])ccc2N2CCOCC2)cc1
 : -4.4	-3	0.7	-5%	-0.1	4.3	-4.5
> C=CCN1C(=O)c2ccc(C(=O)N(C)CC(=O)Nc3cccc(F)c3)cc2C1=O
 : -4.3	2	0.7	.	0.3	3.3	-1.5
> CC(C)c1nnc(SCc2ccc(CSc3nnc(C(C)C)n3N)cc2)n1N
 : -4.5	4	0.72	-4%	-0.8	0.2	0.5
> Cn1nc(-c2ccc(Cl)cc2)c2cc(C(=O)NCC3CCCO3)sc21 (stereo not given)
 : -0.7	-8	0.75	-3%	-0.5	-47	2.3
> O=S(=O)(Nc1nc2ccc(Cl)cc2s1)c1cccs1
 : -3.5	5	0.68	.	-0.1	-3.0	-0.6
> O=C(C1CCC(Cn2c(=O)[nH]c3ccccc3c2=O)CC1)N1CCN(c2ccccc2)CC1 (stereo not given)
 : -1.7	-16	0.72	-1%	0.6	2.1	0.6
> Cc1cc(C)cc(C(=O)NCCn2cc(SCC(=O)N3CCOCC3)c3ccccc32)c1
 : -4.9	9	0.78	3%	2.0	5.7	-1.9
> O=C(Oc1ccccc1-c1nnco1)c1ccccc1
 : 2.9	2	0.69	1%	0.2	1.0	-2.0
> Cn1c(=O)oc2cc(S(=O)(=O)Nc3cccc(C(=O)O)c3)ccc21
 : 0.6	-8	0.71	66%	0.7	6.4	1.8
> C=CCn1c(-c2cc(-c3ccc(C)cc3)nc3ccccc23)n[nH]c1=S
 : -1.8	14	0.67	0%	1.1	0.6	-0.8
> N/C(Cc1ccc([N+](=O)[O-])cc1)=N\OC(=O)c1cccc(Br)c1
 : 4.9	-4	.	1%	-0.4	.	-2.3
> O=C(N/N=C/c1c[nH]c2ccc(Br)cc12)c1ccccn1
 : -0.2	-3	.	0%	0.0	.	0.6
> Cc1cnc(NC(=O)c2sc3ccccc3c2Cl)s1
 : 0.9	-8	0.71	-77%	-5.4	-38	0.5
> Cc1ccc(/C=C/C(=O)Nc2ccc([N+](=O)[O-])cc2)o1
 : 3.0	0	0.7	?	0.2	10	-0.3
> CCCCn1c(=O)c(C(C)=O)c(O)c2ccccc21
 : 1.5	1	0.67	-4%	-0.2	-8.1	2.4
> CCc1nnc(NC(=O)CCc2c[nH]c3ccccc23)s1
 : -0.3	-6	0.7	-7%	0.8	5.3	1.6
> Cc1ccc(C(C(=O)NC2CCCCC2)N(Cc2cccnc2)C(=O)C2COc3ccccc3O2)o1 (stereo not given)
 : -2.1	17	0.67	17%	0.9	6.2	-0.8
> O=C(O)COc1ccc(Br)cc1/C=N/O
 : 2.0	9	.	20%	0.5	.	-4.2
> CCC(Oc1ccccc1)C(=O)NC1CCCCCC1 (stereo not given)
 : -1.2	3	0.71	-5%	-0.9	-0.8	-0.4
> CN(Cc1ccccc1)c1oc(-c2ccco2)nc1C#N
 : 1.0	-11	0.7	?	-0.7	-14	-1.5
> O=C(c1cccs1)N(Cc1ccco1)c1nc(-c2ccc(F)cc2)cs1
 : 1.2	2	0.72	12%	0.8	5.8	0.4
